Screens deposited in PubChem by several laboratories.
Ecoli rRNA inh: inhibitors of bacterial rRNA selective over humanized ribosomes; GFP signal change (wild-type ribosome), % (test concentration not listed); E. coli WT GFP vs humanized-ribosome RFP mutants, fluorescence, 24 h; active compounds read low; DMSO median 0, no signal -100; AID 720706; actives 1.6% (n = 350,000);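 active = significant combined selectivity score with lowered wild-type GFP, culture density cut under 30%, mutant RFP and density less affected; inactive = any of these conditions unmet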; note: one replicate is shown; some compounds called inactive have numbers as strong as hits
LANA-H2B inh: blocks KSHV LANA binding to histone H2A/H2B; Q9QR71; cell-free LANA-H2A/H2B peptide, fluorescence polarization; inhibition, % (concentration not given with the values); actives 0.6% (n = 320,000); AID 2629; in the data active = inhibition mostly above about 10%, no sharp cut-off; inactive = mostly below about 6.7%;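 note: stock transfer was 7.5 nL into about 10 µL; 0% = median of vehicle wells and 100% = median of positive control wells; one replicate is shown; the record names a cut of 25% in any replicate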
Beta cell apopt: beta cell apoptosis inhibition. INS-1E cytokine-induced death, ATP luminescence, 48 h; percent of positive-control rescue, neutral wells zero. protection from apoptosis, % (concentration not given with the values). actives 0.8% (n = 300,000). AID 435005;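 active = all replicates at 75% or more, or half of them and the mean; inconclusive = half reach 75% but not the mean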;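 note: 0% = cytokine-treated negative control wells and 100% = positive control rescue; higher means more ATP so stronger rescue from cytokine killing; wells of about 40 µL received 100 nL stock; the first replicate is given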
T cruzi inh: T. cruzi replication inhibition; T. cruzi beta-gal in NIH3T3, luminescence, 90 h; inhibition, % (test concentration not listed); actives 1.4% (n = 300,000); AID 1885;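 active = mean inhibition across valid replicates above about 55%, limit read from the data; inconclusive = mean below that limit but half or more replicates reach it; inactive = mean below it, under half of replicates reach it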;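 note: signal also drops with host cell toxicity which is not excluded here; 0% = plate median of DMSO wells and 100% = zero luminescence signal; higher percent means less beta-gal luminescence so fewer parasites; stock transfer was 50 nL into about 50 µL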
Calb FLC: C. albicans growth modulation with fluconazole | actives 0.57% (n = 300,000) | AID 1979 | growth inhibition, % (test concentration not listed) | C. albicans CaCi-2 (fluconazole-resistant clinical isolate) + fluconazole, Alamar Blue growth, 48 h;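 active = most replicates above 75%; inconclusive = exactly half above 75%; inactive = most below 75%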;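 note: all wells also contain fluconazole at 8 µg/ml as a sub-toxic cotreatment; 0% = median of DMSO wells and 100% = median of geldanamycin control wells; wells of about 8 µL received 7.5 nL stock; the first replicate is given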
Beta2AR agonist: agonists of human beta-2 adrenergic receptor inducing internalization; P07550; actives 0.43% (n = 340,000); response, % (test concentration not listed); Am2.2-beta2AR cells, FAP receptor internalization, flow cytometry; reference of the scale not given here;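 active = response above a set limit, near 3 SD of response in nonfluorescent compounds, cut at about 42% in these data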;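 note: stock transfer was 100 nL into about 11 µL; a reference agonist was the positive control; negative values mostly stem from fluorescent compounds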
Target sequence (P07550 whole entry, looked up): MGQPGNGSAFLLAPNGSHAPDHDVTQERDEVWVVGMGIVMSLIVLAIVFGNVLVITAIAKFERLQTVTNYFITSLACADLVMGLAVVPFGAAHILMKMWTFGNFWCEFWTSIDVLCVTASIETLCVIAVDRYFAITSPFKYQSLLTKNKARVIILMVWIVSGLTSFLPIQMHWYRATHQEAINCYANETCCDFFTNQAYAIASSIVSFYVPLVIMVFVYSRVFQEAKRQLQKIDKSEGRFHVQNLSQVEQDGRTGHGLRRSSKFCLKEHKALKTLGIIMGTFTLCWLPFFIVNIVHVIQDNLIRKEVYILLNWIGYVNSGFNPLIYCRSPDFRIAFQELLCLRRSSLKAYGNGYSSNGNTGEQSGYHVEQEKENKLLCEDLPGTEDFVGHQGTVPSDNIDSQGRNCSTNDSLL
ALR H2O2 inh: blocks human ALR sulfhydryl oxidase activity | inhibition, % (test concentration not listed) | P55789 | purified ALR, DTT oxidation, H2O2 HRP-luminol luminescence | actives 3.8% (n = 290,000);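 active = mean and each replicate at 75% or more; inconclusive = only one of the two met; inactive = neither met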;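 note: stock transfer was 7.5 nL into about 7.5 µL; 0% = neutral wells and 100% = wells with inactivated enzyme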
Target sequence (P55789 whole entry, looked up): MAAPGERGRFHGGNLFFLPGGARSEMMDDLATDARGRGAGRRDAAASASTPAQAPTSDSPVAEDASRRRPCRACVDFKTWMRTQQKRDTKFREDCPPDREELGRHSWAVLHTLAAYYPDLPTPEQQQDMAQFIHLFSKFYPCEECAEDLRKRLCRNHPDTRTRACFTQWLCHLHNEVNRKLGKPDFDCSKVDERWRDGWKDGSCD
A1 inh: inhibitors of the anti-apoptotic protein A1, read as caspase activation. MEF A1-2A-BIM cells, Caspase-Glo 3/7 luminescence, 3 h; percent of clofoctol response, vehicle zero. caspase activation, % (no concentration beside the values). actives 0.066% (n = 330,000). AID 2462;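 active = over half of replicate activation scores above 10%, or exactly half above 10 with the replicate mean above 10; inconclusive = replicate mean below 10 yet half the replicates above 10; inactive = over half of replicates below 10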;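 note: wells of about 30 µL received 50 nL stock; many hits fall short of the cut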
Ecoli rRNA inh OD600: further read-out of Ecoli rRNA inh, marked with its call; OD600 change, %; measured here: OD600 growth;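 optical density of the mix in the first replicate; 0 = DMSO median and -100 = no signal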
Ecoli rRNA inh RFP: also measured in Ecoli rRNA inh; calls as there; RFP signal change, %; measured here: RFP humanized mutant strains;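 first replicate; 0 = DMSO median and -100 = no signal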
* hit, by the source's call; i = inactive; ? = inconclusive; / = not tested or not shown. Only part of the results is shown; count on the stated rates, not on these rows.

SMILES | Ecoli rRNA inh | Ecoli rRNA inh OD600 | Ecoli rRNA inh RFP | LANA-H2B inh | Beta cell apopt | T cruzi inh | Calb FLC | Beta2AR agonist | ALR H2O2 inh | A1 inh
C/C(=N\Nc1ccc(Cl)c(C(=O)O)c1)c1cccs1 | 4 | -5 | -0.4 | 6.0 | 7 | -3 | -1 | 8 | -9 | 0.0
CC(=O)NCCOc1cccc2cccnc12 | 17 | 11 | 1.0 | -8.4 | / | -13 | -1 | 10 | -9 | 0.7
CCOC(=O)c1ccc(NC(=O)C(C)NS(=O)(=O)c2ccc(OC)cc2)cc1 (configuration not stated) | / | / | / | -9.5 | 3 | -5 | 1 | 5 | -1 | 0.4
COc1cc(/C=N/NC(=O)Cc2nnc(N)s2)cc(OC)c1OC | / | / | / | -5.1 | -3 | -7 | -19 | -6 | -1 | -0.1
Cc1cc([N+](=O)[O-])ccc1NC(=S)NC(=O)C(c1ccccc1)c1ccccc1 | / | / | / | -4.1 | 4 | 38 | 21 | 7 | -2 | 1.4
S=C1NNC2(NN1)C1CC3CC(C1)CC2C3 | / | / | / | 2.8 | 3 | -4 | -4 | -5 | 1 | -0.4
C/C(=N\O)C(C)(C)Nc1ccc(Cl)cc1 | -9 | 5 | 3.1 | 1.0 | -4 | 1 | 1 | 0 | 49 | -0.7
Cn1c2ccccc2c2c(C(=O)N3CCN(c4ccccn4)CC3)cn(C3CCCC3)c(=O)c21 | / | / | / | 4.6 | -1 | 43 | 0 | 2 | 0 | -1.3
Cc1cc(=O)c2ccccc2n1CC(=O)NCc1ccccc1 | / | / | / | -0.2 | 3 | -8 | 25 | -3 | -9 | 0.8
COc1ccc(-c2cc3ccccc3n2CC(O)CN2CCN(CCO)CC2)cc1 (configuration not stated) | 1 | 3 | -0.3 | -1.2 | / | -1 | 1 | 5 | 96* | 1.0
COc1cccc(-c2nc(CS(=O)(=O)CC(=O)NCc3ccc(Cl)cc3)c(C)o2)c1 | 1 | 5 | 1.1 | 2.4 | 2 | -4 | -1 | -18 | -9 | 0.8
Cc1cccc(OCCCC(=O)NNC(=O)c2ccccn2)c1 | / | / | / | 0.1 | 6 | / | / | -5 | -7 | 0.0
C#CCOCCOCCOCCNc1nc(N2CCOCC2)nc(N2CCN(C(=O)CCCCCCCCCCNC(=O)[C@@H](CCSC)n3cc(CCO)nn3)CC2)n1 | -6 | -16 | 16 | 2.6 | 5 | / | / | 11 | -89 | 1.8
Clc1ccc(-c2cc(COc3ccccc3)no2)cc1Cl | / | / | / | 2.5 | -7 | -4 | 1 | 4 | 3 | -0.3
Cc1ccc(S(=O)(=O)N2CCN(C(=O)CSCc3ccc(C(C)C)cc3)CC2)cc1 | -14 | -18 | 1.1 | 2.0 | 7 | / | / | -5 | -4 | 0.2
S=C(NC1CCCCC1)N(CCc1ccccc1)CCc1ccccc1 | / | / | / | -3.2 | 32 | 47 | / | 19 | 2 | 0.3
O=C(CN1C(=O)CCC1=O)Nc1cccc(NC(=O)CN2C(=O)CCC2=O)c1 | 19 | 5 | -1.6 | -4.5 | 1 | -1 | 0 | -5 | -2 | 0.5
COc1ccc(OCC(=O)Sc2ccc(C)cc2)cc1 | / | / | / | -2.9 | / | 4 | 0 | -3 | 98* | 0.1
CCc1nnc(NC(=O)CSc2nncc(=O)n2N)s1 | 17 | 14 | 4.4 | 2.8 | 5 | -29 | 2 | -2 | ? | -0.8
Cc1ccc(S(=O)(=O)N(C)CC(=O)NNC(=O)Cc2cccc(F)c2)cc1 | 7 | 8 | -0.7 | -1.3 | -4 | / | / | -5 | 0 | 0.7
C[C@H](NC(=O)c1[nH]cnc1C(=O)Nc1ccc(CNC(=O)OC(C)(C)C)cc1)C(=O)OC(C)(C)C | 7 | -16 | 18 | -6.3 | 6 | 36 | 14 | 16 | -2 | -1.0
COc1cc2c(cc1NC(=O)c1cc(-c3ccccn3)nc3ccccc13)oc1ccccc12 | 17 | 15 | 2.4 | -0.7 | 9 | ? | -19 | 2 | -6 | -0.8
OCc1cc(-c2ccc(Cl)c(Cl)c2)on1 | -29 | -25 | -0.1 | -3.2 | -6 | / | -11 | 3 | -7 | 0.3
Cc1ccccc1OCCNc1ccc(C(F)(F)F)cc1[N+](=O)[O-] | / | / | / | -2.8 | -3 | 21 | 4 | -6 | -17 | 0.6
CC(C)=CCN1CCN(Cc2nc(-c3ccccc3)cs2)CC1CCO (configuration not stated) | 3 | 1 | -2.3 | -3.5 | 0 | 11 | -3 | -5 | -7 | 0.3
COc1ccc(C(=O)CSc2n[nH]c(=O)n2Cc2ccco2)cc1 | 1 | 2 | 1.4 | 15 | 1 | 1 | -2 | 3 | / | 0.3
CCOC(=O)c1c(NC(=O)OC)sc(C(=O)N(CC)CC)c1C | / | / | / | -2.0 | -7 | -7 | -1 | 4 | 2 | 0.9
O=C(CSc1nnc(Nc2ccccc2F)s1)NC1CC1 | 0 | 9 | 0.2 | 6.8 | 0 | / | / | -1 | -4 | -4.6
Cn1nnnc1SCC(=O)Nc1cc(S(=O)(=O)N2CCCCC2)ccc1Cl | 3 | 6 | 1.9 | 4.6 | -4 | / | / | 9 | -6 | 0.5
COc1ccc(CCNC(=O)CCc2ccc(OC)cc2)cc1 | 2 | 2 | 2.1 | -1.8 | -7 | 3 | -10 | -9 | -1 | 0.1
CC1CCCCN1CCNC(=O)CCc1nnc2n(Cc3ccccc3)c(=O)c3ccccc3n12 (configuration not stated) | 4 | 7 | 5.3 | 0.2 | 0 | 8 | 11 | -21 | -1 | -0.1
O=C(c1cc([N+](=O)[O-])ccc1Cl)N1CCc2ccccc21 | -11 | -10 | -8.2 | -0.8 | -2 | 4 | -15 | -9 | -4 | 0.1
CC(=O)Nc1ccc(NC(=O)COc2cccc3c2OC(C)(C)C3)cc1 | -19 | -20 | -2.2 | 1.9 | -2 | -8 | 31 | -8 | / | 0.5
CSc1cccc(CN2CCC(Oc3cccc(C(=O)N4CCCC4)c3)CC2)c1 | 13 | 2 | 4.8 | -1.7 | 8 | 44 | -11 | -9 | 0 | -1.2
O=S(=O)(CCN1CCOCC1)c1ccc(Oc2ccc(S(=O)(=O)CCN3CCOCC3)cc2)cc1 | -1 | 5 | 0.1 | 1.6 | 9 | -8 | 10 | 7 | -2 | -0.3
CCc1ccc(NC(=O)CCn2cccc2)cc1 | / | / | / | 6.4 | / | -2 | 4 | 0 | 3 | 0.1
CC(OC(=O)c1cccc(-n2cnnn2)c1)C(=O)Nc1ccccc1F (configuration not stated) | 0 | 7 | 1.1 | 0.5 | -1 | -3 | -6 | 31 | -4 | 1.2
COc1ccc(/C=C2\SC(=O)N(CC(=O)N(C)C3CCS(=O)(=O)C3)C2=O)cc1 (configuration not stated) | 2 | 4 | 1.4 | 2.6 | -5 | -7 | 13 | -1 | -16 | 0.0
O=C(CCCc1nc2ccccc2s1)Nc1ccccc1 | -14 | 3 | 1.1 | 2.6 | -8 | -3 | -20 | -2 | -6 | -1.0
Cc1ccc(S(=O)CCNC(=O)Cc2ccc(Cl)cc2)cc1 (configuration not stated) | -17 | -14 | -4.1 | -2.4 | / | -7 | 18 | 0 | -29 | 0.9
CCN(CC)C(=O)CSc1nnc(-c2ccc(O)cc2)n1CC1CCCO1 (configuration not stated) | / | / | / | 2.2 | 0 | -14 | 0 | -1 | 14 | -0.2
CCOc1ccc(C(=O)Nc2ccc(NC(=O)c3ccccc3)cc2)cc1Br | -2 | 3 | -4.8 | -0.5 | / | -3 | 5 | 2 | 0 | 0.6
CCOc1ccc(N(CC(=O)NCCc2ccc(OC)cc2)S(C)(=O)=O)cc1 | 7 | 17 | 0.7 | 2.4 | -5 | -3 | 5 | -10 | -7 | 1.3
COc1ccccc1C(=O)NNC(=O)c1cccc(F)c1 | / | / | / | 0.0 | 2 | -3 | -1 | 6 | -4 | -5.3
N#Cc1sc2nc3c(cc2c1N)CCCC3 | / | / | / | 10 | 5 | 6 | 38 | -12 | -2 | -0.4
CN1/C(=C\C(=O)C[n+]2ccc(C(=O)c3ccccc3)cc2)C(C)(C)c2ccccc21 | -57 | -77 | -21 | -0.2 | 103* | 9 | 98* | -25 | / | -0.7
CCC(C)C(=O)Nc1nnc(-c2cccs2)s1 (configuration not stated) | / | / | / | i | -3 | / | / | -31 | -3 | 0.8
CCCn1c(NC(=O)c2ccc([N+](=O)[O-])o2)nc2ccccc21 | 4 | -7 | 8.0 | 5.2 | / | 58* | -6 | 7 | -35 | -0.3
Cc1sc2nc(SCC(=O)N3CCCC3)[nH]c(=O)c2c1C | -2 | -9 | -0.4 | 1.9 | / | 2 | 0 | 1 | 5 | 1.7
Cc1cc(C)n(CC(O)CN(c2ccccc2)S(=O)(=O)c2ccccc2)n1 (configuration not stated) | / | / | / | 6.4 | -1 | -4 | -3 | -8 | -5 | 0.9
N#CCCn1ccc(NC(=O)c2ccc(Cl)cc2)n1 | / | / | / | 4.1 | -4 | 3 | ? | -2 | -3 | 0.0
CN(C)c1ccc(/C=N/NC(=O)c2ccc3c(c2)OCCO3)cc1 | 11 | 14 | 3.8 | 4.0 | 0 | -10 | -2 | -2 | 98* | -1.3
CC(=O)c1ccc(NC(=O)c2sc3nc(C)c(C)c(C)c3c2N)cc1 | -4 | -1 | -6.4 | 0.9 | / | 3 | 4 | -6 | -4 | -0.9
Cc1nc(CNS(=O)(=O)c2ccc(Br)cc2)cs1 | -24 | -34 | 6.7 | 6.6 | -4 | 7 | 10 | 8 | -1 | -0.1
CCc1nn2cc(C(=O)c3ccccc3O)cnc2c1-c1ccc(F)cc1 | -14 | -20 | -19 | 1.2 | -5 | 3 | 1 | 2 | 0 | 0.1
CCCn1c(SCC(=O)NC(C)(C)C)nnc1C(C)C | / | / | / | 1.5 | 3 | -12 | 2 | -2 | -1 | -0.3
CCC(OC(=O)C1=Cc2ccccc2OC1)C(=O)NCc1ccco1 (configuration not stated) | 8 | -6 | 2.3 | 0.1 | -3 | -2 | -21 | 10 | / | 0.2
O=C(CSc1nnc(-c2ccccc2F)o1)N1CCNC1=O | 8 | 16 | 2.4 | 3.6 | -2 | / | / | -4 | -2 | -1.3
CCO/N=C(/C)c1c(O)c(C)c(-c2ccccc2)n(-c2ccccc2)c1=O | / | / | / | -2.8 | 0 | -7 | 8 | 7 | -14 | 0.2
Cc1nn(-c2ccccc2)c(Cl)c1C1C(C#N)=C(N)OC2=C1C(=O)CC(C)(C)C2 (configuration not stated) | / | / | / | -4.8 | 0 | 13 | -22 | 2 | 1 | 0.4
COc1ccc(N/C=C/c2nc(SC)nnc2C)cc1 | 6 | -6 | 0.0 | -7.1 | -11 | 10 | -2 | -5 | 32 | -0.7
Cn1c(=O)n(C)c2cc(NC(=O)Cc3ccccc3[N+](=O)[O-])ccc21 | 9 | 14 | 0.8 | 1.3 | -1 | -14 | 4 | -5 | -6 | 0.4
